Beta cell apopt: beta cell apoptosis inhibition; INS-1E cytokine-induced death, ATP luminescence, 48 h; percent of positive-control rescue, neutral wells zero; protection from apoptosis, % (no concentration beside the values); actives 0.8% (n = 300,000); AID 435005;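 active = all replicates at 75% or more, or half of them and the mean; inconclusive = half reach 75% but not the mean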;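 also: 0% = cytokine-treated negative control wells and 100% = positive control rescue; higher means more ATP so stronger rescue from cytokine killing; wells of about 40 µL received 100 nL stock; the first replicate is given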
A1 inh: inhibitors of the anti-apoptotic protein A1, read as caspase activation; MEF A1-2A-BIM cells, Caspase-Glo 3/7 luminescence, 3 h; percent of clofoctol response, vehicle zero; caspase activation, % (no concentration beside the values); actives 0.066% (n = 330,000); AID 2462;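 active = over half of replicate activation scores above 10%, or exactly half above 10 with the replicate mean above 10; inconclusive = replicate mean below 10 yet half the replicates above 10; inactive = over half of replicates below 10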;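 also: wells of about 30 µL received 50 nL stock; many hits fall short of the cut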
T cruzi repl: blocks replication of Trypanosoma cruzi; inhibition, % (no concentration beside the values); actives 1.4% (n = 300,000); AID 1885; T. cruzi beta-gal in NIH3T3, luminescence, 90 h;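 active = mean inhibition across valid replicates above about 55%, limit read from the data; inconclusive = mean below that limit but half or more replicates reach it; inactive = mean below it, under half of replicates reach it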;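 also: signal also drops with host cell toxicity which is not excluded here; 0% = plate median of DMSO wells and 100% = zero luminescence signal; higher percent means less beta-gal luminescence so fewer parasites; stock transfer was 50 nL into about 50 µL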
Calb FLC: affects C. albicans growth with fluconazole; C. albicans CaCi-2 (fluconazole-resistant clinical isolate) + fluconazole, Alamar Blue growth, 48 h; growth inhibition, % (concentration not given with the values); actives 0.57% (n = 300,000); AID 1979;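 active = most replicates above 75%; inconclusive = exactly half above 75%; inactive = most below 75%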;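 also: all wells also contain fluconazole at 8 µg/ml as a sub-toxic cotreatment; 0% = median of DMSO wells and 100% = median of geldanamycin control wells; wells of about 8 µL received 7.5 nL stock; the first replicate is given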
RanGTP-Impb inh: inhibitors of RanGTP-importin-beta interaction, primary screen, biochemical, FRET, CFP-Ran, YFP-importin-beta, homogeneous; cell-free CFP-Ran/YFP-importin-beta FRET ratio; inhibition, % (concentration not given with the values); actives 1.1% (n = 300,000); AID 2216;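 active = most replicates above 15%; inconclusive = exactly half above 15%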;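 also: 0% = DMSO wells and 100% = Ran loaded with GDP instead of GTP; wells of about 40 µL received 100 nL stock; the first replicate is given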
LANA-H2B inh: blocks KSHV LANA binding to histone H2A/H2B. cell-free LANA-H2A/H2B peptide, fluorescence polarization. inhibition, % (test concentration not listed). Q9QR71. actives 0.6% (n = 320,000); in the data active = inhibition mostly above about 10%, no sharp cut-off; inactive = mostly below about 6.7%;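 also: stock transfer was 7.5 nL into about 10 µL; 0% = median of vehicle wells and 100% = median of positive control wells; one replicate is shown; the record names a cut of 25% in any replicate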
Target sequence (Q9QR71 whole entry, looked up): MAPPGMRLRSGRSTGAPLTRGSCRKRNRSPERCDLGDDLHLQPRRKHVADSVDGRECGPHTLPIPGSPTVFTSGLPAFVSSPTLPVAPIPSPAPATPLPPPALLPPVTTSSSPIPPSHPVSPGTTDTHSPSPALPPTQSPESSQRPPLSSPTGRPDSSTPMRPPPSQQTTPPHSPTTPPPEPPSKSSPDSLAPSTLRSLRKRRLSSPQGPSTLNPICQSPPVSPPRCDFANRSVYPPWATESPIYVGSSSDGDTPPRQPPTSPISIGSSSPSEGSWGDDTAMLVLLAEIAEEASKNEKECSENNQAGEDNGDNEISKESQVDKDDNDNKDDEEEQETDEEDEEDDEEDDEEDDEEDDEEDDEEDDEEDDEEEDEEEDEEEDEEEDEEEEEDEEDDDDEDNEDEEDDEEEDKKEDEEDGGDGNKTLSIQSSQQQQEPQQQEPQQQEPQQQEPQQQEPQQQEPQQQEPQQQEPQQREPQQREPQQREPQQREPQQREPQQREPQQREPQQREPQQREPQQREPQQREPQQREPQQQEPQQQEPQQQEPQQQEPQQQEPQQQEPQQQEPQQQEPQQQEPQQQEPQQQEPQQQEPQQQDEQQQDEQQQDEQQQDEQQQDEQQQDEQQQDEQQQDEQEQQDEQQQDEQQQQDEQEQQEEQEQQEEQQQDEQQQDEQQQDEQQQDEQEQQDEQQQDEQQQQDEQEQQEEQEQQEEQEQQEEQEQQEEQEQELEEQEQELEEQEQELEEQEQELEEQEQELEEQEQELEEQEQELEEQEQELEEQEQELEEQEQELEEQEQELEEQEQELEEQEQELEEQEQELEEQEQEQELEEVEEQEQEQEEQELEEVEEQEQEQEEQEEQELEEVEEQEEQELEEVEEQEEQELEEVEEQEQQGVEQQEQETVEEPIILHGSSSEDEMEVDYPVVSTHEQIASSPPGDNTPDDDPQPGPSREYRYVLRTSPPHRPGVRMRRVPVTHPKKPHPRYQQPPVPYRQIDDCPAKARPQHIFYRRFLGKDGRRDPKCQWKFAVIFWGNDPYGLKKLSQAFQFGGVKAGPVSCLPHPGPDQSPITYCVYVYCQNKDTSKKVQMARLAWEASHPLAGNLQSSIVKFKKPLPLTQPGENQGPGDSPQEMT
Beta2AR agonist: human beta-2 adrenergic receptor agonism by FAP; P07550; Am2.2-beta2AR cells, FAP receptor internalization, flow cytometry; reference of the scale not given here; response, % (no concentration beside the values); actives 0.43% (n = 340,000);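 active = response above a set limit, near 3 SD of response in nonfluorescent compounds, cut at about 42% in these data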;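 also: stock transfer was 100 nL into about 11 µL; a reference agonist was the positive control; negative values mostly stem from fluorescent compounds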
UCH37 DUB inh: human UCH37 deubiquitinating enzyme inhibition. AID 588478. purified proteasome/UCH37, Ub-AMC cleavage fluorescence. actives 0.33% (n = 330,000). inhibition, % (no concentration beside the values);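 active = mean of two replicates above 20%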;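 also: 0% = compound-free wells with enzyme and 100% = wells lacking proteasome; stock transfer was 100 nL into about 20 µL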
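system = Proteasome-associated human UCH37 deubiquitinase | amount = 0.15 nM proteasome as dispensed | medium = pH 7.4 Tris-HCl (50 mM) with ovalbumin, ATP-MgCl2, DTT | incubation = 30 min preincubation with enzyme, 25 min cleavage at room temperature | detection = AMC fluorescence 355/460 nm | read-out basis = percent inhibition | controls = no-proteasome and no-compound wells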
* marks the source's active call; other numbers are inactive results; i = inactive; ? = inconclusive; . = not tested or not shown.

SMILES | Beta cell apopt | A1 inh | T cruzi repl | Calb FLC | RanGTP-Impb inh | LANA-H2B inh | Beta2AR agonist | UCH37 DUB inh
CCCOC1(NC(=O)c2ccccc2)C(C)=CC(=O)C=C1C | -18 | 0.4 | -8 | 14 | -1.3 | 1.5 | 8 | 2.3
COc1ccc(C(=O)Nc2nc(N)n(-c3ccccc3)n2)cc1OC | -5 | 0.2 | -6 | -4 | ? | 0.2 | -4 | -0.9
CCCN1CCc2c(sc3nc(SC)n(-c4ccccc4)c(=O)c23)C1 | 0 | -0.4 | 45 | -3 | 7.1 | 1.1 | 10 | -44
O=C(Cc1cc(=O)[nH]c(=O)[nH]1)NCCN1CCOCC1 | -1 | -0.3 | 7 | 2 | 0.9 | 1.1 | -2 | 3.9
Cc1ccc(OC(=O)C(C)c2cccc(C(=O)c3ccccc3)c2)cc1 (stereo not given) | 0 | -0.6 | 28 | 14 | 4.9 | -6.0 | 6 | 4.5
CC(C)CN(C(=O)c1cccs1)C1CCS(=O)(=O)C1 (stereo not given) | . | . | 0 | -5 | 0.7 | . | -5 | 1.3
COc1ccc(/C=N/NC(=O)CN(C)C(=O)OCc2ccccc2)cc1OC | -6 | -0.8 | 2 | -1 | 0.0 | -2.1 | 9 | .
O=C(COc1cc2oc(=O)c3c(c2cc1Cl)CCCC3)NCC1CCC(C(=O)O)CC1 (stereo not given) | 0 | -0.1 | -10 | -5 | -3.7 | 0.4 | -9 | -29
Cc1ccc2c(c1)[nH]c1c(=O)n(Cc3ccccn3)cnc12 | -1 | -0.9 | 4 | 0 | 1.8 | -4.7 | 4 | -2.5
CCc1ccc(CSc2nccn2-c2ccccc2)cc1 | -4 | 0.2 | -30 | 19 | 2.0 | -0.6 | -4 | 5.1
O=C(COc1ccccc1[N+](=O)[O-])Nc1cccc(Cl)c1N1CCOCC1 | 0 | -1.2 | -3 | 6 | -0.9 | -1.9 | -4 | 2.3
CCOc1ccc2nc(N3CCC(C(=O)NCCCN4CCOCC4)CC3)sc2c1 | 0 | -0.9 | 3 | 8 | 6.7 | 0.9 | 3 | 1.9
O=C(NCC(c1ccc(F)cc1)N1CCOCC1)c1ccc(C(=O)c2ccccc2)cc1 (stereo not given) | 0 | -0.5 | -1 | 0 | -3.3 | 3.6 | -8 | 0.9
CNC(=O)c1cn(-c2ccccc2)c(=O)c2ccccc12 | -1 | 0.9 | -6 | -7 | -1.7 | 0.9 | 3 | -1.6
CCC1CCCCN1CC(O)Cn1c2ccccc2n2c(=O)cc(C)c(C#N)c12 (stereo not given) | -1 | 1.2 | 14 | -11 | 1.6 | -2.5 | 2 | -12
COc1ccc(Cn2nnnc2CN2CCC(O)(c3ccccc3F)CC2)cc1 | -1 | 0.4 | 20 | 31 | 2.9 | 2.4 | 2 | 5.8
Cc1nc2nc(-c3ccc(F)cc3)cn2nc1C | 4 | -7.5 | -7 | -4 | 95* | -8.3 | -21 | i
COc1cc(NS(=O)(=O)c2ccc(-c3ccc(=O)[nH]n3)o2)cc(OC)c1OC | -2 | -0.1 | -3 | 50 | -0.3 | 0.7 | -3 | 3.5
O=C(c1cc2ccccc2oc1=O)N(Cc1cccs1)C1CCS(=O)(=O)C1 (stereo not given) | . | 0.3 | -11 | -6 | 1.1 | -5.0 | -8 | -1.1
COC(=O)C(C)Oc1ccc(Oc2nc(Cl)ccc2Cl)cc1 (stereo not given) | -9 | 0.1 | -4 | 51 | -0.2 | -1.7 | 4 | 4.7
c1ccc(-c2ccc(C3CCCN3)cc2)cc1 (stereo not given) | -4 | -1.9 | 8 | -8 | -5.4 | 0.2 | 0 | 1.0
Cc1ccc(C)c(N2CCN(C(=O)Cn3cccc3)CC2)c1 | 0 | -0.3 | -15 | 1 | -0.5 | -2.5 | -8 | 2.0
COc1ccc(CNC(=O)CN(Cc2ccc(OC)cc2)C(=O)c2csnn2)cc1 | 0 | 0.1 | 5 | 8 | -2.5 | 2.0 | -4 | 4.7
CS(=O)(=O)Nc1nc2n(n1)C(c1ccc(F)cc1)CC(c1ccccc1)N2 (stereo not given) | -7 | 0.8 | -10 | -1 | -1.1 | -2.6 | 0 | -1.2
CC1(C)C2CCC1(CS(=O)(=O)N1CCOCC1)C(=O)C2 (stereo not given) | 0 | 1.7 | . | 13 | 2.2 | 8.5 | -2 | 2.6
Cc1ccccc1OCC(=O)N/N=C/c1ccc(Sc2nc3ccccc3s2)o1 | -7 | 1.1 | 10 | -7 | 2.6 | -1.3 | 1 | .
O=C(COC(=O)c1ccc(S(=O)(=O)N2CCCCC2)cc1)NCc1ccccc1 | 3 | -1.8 | . | . | . | -0.3 | 3 | 0.9
O=C1OCC/C1=C\c1ccc(O)cc1 | 0 | -0.1 | -1 | 0 | -5.3 | 3.4 | -1 | 6.3
O=C(c1cc2nc(-c3ccccc3)cc(-c3ccccc3)n2n1)N1CCCC1 | -6 | 1.3 | -2 | 3 | 3.3 | 2.5 | -25 | -147
O=C(c1ccc(Cn2cc(Br)cn2)cc1)N1N=C(C(F)F)CC1(O)C(F)F (stereo not given) | 7 | -0.3 | -12 | 0 | -5.2 | 0.3 | 1 | 3.4
CCOC(=O)c1ccc(N2CN(C3CCCCC3)CNC2=S)cc1 | -5 | -0.2 | 0 | -7 | -0.6 | -0.1 | -5 | .
CCOc1ncccc1C(=O)N=C1SCCN1C(=O)c1cccnc1OCC | -7 | 1.0 | -15 | -19 | 1.5 | 1.8 | -8 | 0.9
Cn1ccc(NC(=O)Nc2cccc(C(F)(F)F)c2)n1 | -3 | -0.2 | 2 | -4 | -0.7 | 4.1 | 6 | 2.3
CC1CN(C(c2cccs2)c2sc3ncnn3c2O)CC(C)O1 (stereo not given) | -3 | -0.3 | -11 | 9 | 2.6 | -1.6 | -3 | 4.9
Cc1ccc(S(=O)(=O)C2(C(=O)N3CCN(c4ccccc4F)CC3)CC2)cc1 | 4 | -0.4 | 3 | 0 | 2.6 | 4.0 | 7 | 2.2
CC(C)(C)C(=O)/C=C/c1ccc(Oc2ccccc2)cc1 | 7 | -1.6 | -3 | -10 | 3.4 | -1.9 | 8 | .
N=C1S/C(=C\c2ccco2)C(=O)N1c1nccs1 | 14 | -1.0 | 56* | 0 | 0.0 | 0.2 | 21 | 13
O=C(O)C(c1ccccc1)C1(O)CCCCC1 (stereo not given) | 2 | 0.0 | 3 | 17 | -0.2 | -0.3 | -6 | 6.4
COc1ccccc1N1CCN(S(=O)(=O)c2cc(-c3cc(C)no3)ccc2C(C)C)CC1 | -4 | 0.6 | 18 | 19 | -2.6 | 1.8 | -1 | 9.2
CCCN1CCN(C(=O)Nc2ccc(OCC)cc2)CC1 | 1 | ? | 0 | ? | -0.3 | -8.3 | 0 | 6.2
COC(=O)c1cc(S(=O)(=O)N2CCC(C(N)=O)CC2)oc1C | -3 | -1.2 | -11 | 19 | 1.7 | 1.2 | 2 | 1.7
Cc1ccc2oc(=O)n(CC(=O)c3ccc(F)cc3)c2c1 | 0 | -0.3 | -7 | -1 | 0.1 | -1.7 | 1 | 1.3
CC(C)CN(C(=O)Cn1ccccc1=O)C1CCS(=O)(=O)C1 (stereo not given) | 6 | 1.6 | . | . | . | -6.0 | 0 | 3.5
CCCc1c(C(=O)N/N=C/c2ccccc2OCc2ccc(F)cc2)nnn1-c1nonc1N | -3 | 0.2 | -9 | . | 3.7 | -1.3 | 1 | .
CCOc1cc2[nH]c(=S)n(CCCCC(=O)NCc3ccco3)c(=O)c2cc1OCC | 2 | 0.2 | -14 | -5 | -5.5 | -7.0 | 22 | -1.1
O=C(Nc1ccccc1N1CCN(c2ccccc2)CC1)C1CCCCC1 | -3 | 0.6 | 21 | 6 | 1.3 | 0.0 | -2 | 0.7
O=C(c1cc(-c2ccco2)on1)N1CCCc2ccccc21 | -6 | -0.5 | -10 | 1 | 2.8 | 1.7 | -9 | 4.3
Cc1noc(C)c1COC(=O)/C=C/c1ccccc1Cl | 1 | 0.1 | -12 | 5 | -1.1 | -4.2 | 2 | 4.9
CNc1ccccc1C(=O)OC(C)C(=O)Nc1ccc(S(=O)(=O)N2CCCC2)cc1 (stereo not given) | -7 | -0.4 | 21 | -9 | 6.7 | -5.2 | -5 | -260
CC(=O)Nc1c(O)nc(SCC(=O)Nc2c(C)cccc2C)[nH]c1=O | -5 | 0.1 | -28 | -9 | 4.2 | -2.7 | -2 | 2.3
(cont.)
SMILES | Beta cell apopt | A1 inh | T cruzi repl | Calb FLC | RanGTP-Impb inh | LANA-H2B inh | Beta2AR agonist | UCH37 DUB inh
COC(=O)c1sc(NC(=O)c2ccc(C)o2)nc1C | 17 | -7.3 | -9 | -3 | 4.7 | 0.1 | -8 | 6.2
CCCCCCCCNC(=O)c1cnsn1 | -7 | 0.5 | 10 | -9 | -2.1 | -1.3 | -2 | 0.4
O=C(Cn1cnc2c(nnn2-c2ccccc2)c1=O)NCc1ccc(F)cc1 | -12 | -0.3 | -10 | -9 | 1.8 | 1.9 | -9 | 1.4
COc1ccc(CN2C(=O)c3ccccc3C2C(=O)NC2CCCC2)c(OC)c1 (stereo not given) | 1 | 0.9 | 9 | -8 | -1.1 | -2.1 | -7 | 0.4
CCOC(=O)c1ccc(-c2ccc3c(=O)c4ccccc4n(C)c3c2)cc1F | 5 | -0.3 | 4 | -16 | 44* | -0.5 | -4 | -7.0
O=C(c1ccc(OC2CCN(C/C=C/c3ccc(F)cc3)CC2)cc1)N1CCCC1 | 3 | -0.2 | 16 | -20 | 3.1 | 6.4 | 3 | 1.9
Cc1cc(C(=O)OC(C)C(=O)NC2CCCCC2C)c(C)o1 (stereo not given) | -7 | 0.1 | -4 | -4 | -3.6 | 2.0 | -6 | -0.1
Cn1cccc1C(=O)C(=O)Nc1ccc(Cl)cc1 | -6 | -7.2 | -4 | -33 | 0.0 | -3.4 | -10 | 6.3
Cc1[nH]nc2c1C(c1ccsc1C)C(C#N)=C(N)O2 (stereo not given) | -10 | 0.5 | -2 | 2 | 0.1 | -1.3 | -2 | 6.0
Cc1ccc2c(c1)N(S(=O)(=O)c1ccc(CN3C(=O)c4cccnc4C3=O)cc1)CCO2 | -3 | -1.1 | 3 | 20 | 8.0 | 0.1 | -3 | -0.8
O=C(NC1CC1)C1CCN(C(=O)c2ccc(Cl)cc2)CC1 | -4 | 0.2 | -11 | 5 | -1.2 | -2.4 | -1 | 5.3
Cc1nc2ccc(F)cc2cc1C(=O)Nc1cccc(Cl)c1C | -4 | 0.7 | -18 | -7 | ? | 5.1 | 1 | -2.1
CC1CCCCC1NC(=O)CCNS(=O)(=O)c1cc(Br)cnc1N (stereo not given) | 1 | -2.0 | 10 | -3 | -0.1 | -0.7 | -4 | -4.0
O=C(N=C1SC2CS(=O)(=O)CC2N1c1ccc(Br)cc1Cl)C1CC1 (stereo not given) | 5 | 0.8 | -7 | 16 | -2.4 | -0.9 | -5 | 1.8

High-throughput results deposited in PubChem BioAssay by several laboratories.
